Bioassay records deposited in PubChem by Fisher Drug Discovery Resource Center.
NPYLR7 agonist: mosquito NPYLR7 agonism; HEK293T NPYLR7/Galpha15, GCaMP6s calcium fluorescence; activation, % at 10 µM; 270,000 compounds, 0.15% hits; AID 1259423; in the data active means activation above about 40%;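 further: 0% = vehicle and 100% = reference agonist at the receptor; some compounds past the cut are filed as inactive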
NPYLR7 agonist max-min: recorded beside NPYLR7 agonist, whose call it bears; activation, %; measured here: Max-Min RFU normalised activation; some inactives read as strong as hits;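 span of the calcium signal over five minutes; 0% = vehicle and 100% = native peptide agonist; compound fluorescence can raise it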
An asterisk follows results filed as active; & = joins results of further samples.

SMILES	NPYLR7 agonist	NPYLR7 agonist max-min
CCOC(=O)C=C1SCC(=O)N1CC(O)CN1C(=O)CSC1=CC(=O)OCC (centres undefined)	-5	-8
COCCn1cc(C(=O)Nc2ccc3c(c2)OCO3)c2nn(-c3ccccc3)c(=O)c-2c1	5	6
COC(=O)CCCC(=O)N1CCC(c2nc(-c3ccc(Cl)cc3)no2)CC1	0	-6
N#CCCn1cnc2ccccc21	2	-2
Nc1ncnc(Nc2ccc(F)cc2)n1	0&8	1&7
CC(=O)N1CCN(c2cc3c(cc2F)c(=O)c(C(=O)Nc2nnc(C(C)C)s2)cn3C2CC2)CC1	5	3
O=C(/C=C\c1ccc2c(c1)OCO2)Nc1c2c(nn1-c1cccc(Cl)c1)CSC2	2	-2
O=C(C1=COCCO1)N(CCCN1CCOCC1)c1nc2ccc(F)cc2s1	-6	-11
COc1ccc(C(=O)CSc2ccc3nnc(CCNS(=O)(=O)c4ccccc4)n3n2)cc1	2	-5
O=[N+]([O-])c1ccccc1C1c2cccn2CCCN1Cc1cccnc1 (centres undefined)	19	15
CN(C)S(=O)(=O)N1CCCC(CNC(=O)c2ccccc2Cl)C1 (centres undefined)	-3	-7
COc1ccc2nc(-c3ccc(OC)c(NS(=O)(=O)c4cc(C)cc(C)c4)c3)cn2n1	-7	-13
CC(C)CN1C(=O)C(Nc2ccc(Br)cc2)=C(Sc2cccc(N)c2)C1=O	6	2
Cc1ccc(CN(Cc2ccc(F)cc2)C(=O)CN(C(=O)c2ccc(Cl)cc2)C2CCCCC2)s1	-3	-1
COc1ccc(N2CCN(S(=O)(=O)c3cn(C)c(=O)n(C)c3=O)CC2)cc1	0	-2
CC1CN(C(=O)CNC(=O)NCc2ccco2)CC(c2ccccc2)O1 (centres undefined)	-4	-6
CCOP(=O)(Cc1ccc(NC(=O)C(C)(C)Oc2ccccc2Cl)cc1)OCC	15	-3
CC1SC(c2ccc(Cl)c(Cl)c2)N(CCO)C1=O (centres undefined)	-1	-4
COc1ccc(CCN(C)C(=O)c2cc(-c3ccccc3F)nn2-c2cccc([N+](=O)[O-])c2)cc1OC	12	17
Cc1nnc2ccc(-c3ccc(NS(=O)(=O)c4ccccc4)cc3)nn12	-11	-7
CCOC(=O)C1c2c(OC)ccc3c2C(=CC(C)(C)CO3)CN1C(=O)N1CCOCC1 (centres undefined)	2	4
CNC(=O)C1CCCCN1C(=O)c1cccc(Cl)c1 (centres undefined)	1	1
Cc1cc(C)c2c(NC(=O)c3ccccn3)c(C(=O)N3CCOCC3)sc2n1	12	8
CCOc1ccc(N2C(=O)CSC2c2ccc(NC(=O)COCc3ccccc3)cc2)cc1 (centres undefined)	11	10
O=C(c1ccc2snnc2c1)N1CCOC(Cc2ccccc2)C1 (centres undefined)	23	27
COc1ncccc1NC(=O)N(CCN1CCOCC1)C1CCCC1	2	0
CCOCCN1N=C(C)Cn2c1nc1c2c(=O)n(CCC(C)C)c(=O)n1C	-13	-13
Cc1nn(C)c(C)c1S(=O)(=O)N1CCN(C(c2ccccc2)c2ccc(Cl)cc2)CC1 (centres undefined)	2	-9
CCNCc1nccn1Cc1ccc(Cl)c(Cl)c1	-12	-3
Oc1ccc(C2Nc3cccc4cccc(c34)N2)c(O)c1	9	5
O=C(NC1CCCC1)C1CC(=O)N(C2CCCCCCC2)C1 (centres undefined)	-7	-6
CC(C)NC(=O)N(Cc1ccco1)Cc1ccccc1OS(=O)(=O)c1ccc(F)cc1	7	19
O=C(COCC1CC1)N1CCc2[nH]c3ccccc3c2C1	4	2
CCn1c(CN2CCC(c3cc(C(C)C)n[nH]3)CC2)nc2ccccc21	-4	-5
O=S(=O)(C1CC1)N1CCn2cncc2C1	10	5
c1cnn(CC2CCN(c3ccc(-c4nc(C5CC5)no4)cn3)CC2)c1	14	8
O=C1CC(Nc2ccc(N3CCOCC3)cc2)C(=O)N1c1ccccc1F (centres undefined)	-5	-5
CC(C)(C)n1ncc2c(=O)n(NC(=O)c3ccc([N+](=O)[O-])cc3)cnc21	5	3
COC(=O)C1CCCc2c1cnn2CC(=O)NCc1ccc(Cl)cc1 (centres undefined)	1	1
CC(C)c1nc(SCC(=O)N2CCNC2=O)nn1-c1ccccc1	14	10
CC(=O)Nc1c2c(nn1CC(=O)NCc1ccco1)CSC2	-3	4
CC(NC(=O)c1ccccc1N1CCC(NS(=O)(=O)c2ccc(Cl)cc2)CC1)c1ccccc1 (centres undefined)	0	7
COCCNC(=O)c1cccc2c(-c3cnn(C)c3)coc12	1	0
Cc1ccnc(CC(C)N(C)C(=O)c2cc3cnccc3nc2C)c1 (centres undefined)	2&3	-2&-1
CC(Cc1scc(C)[n+]1-c1ccccc1)=Nc1ccccc1	-1	-3
CC1CC1C(=O)OCc1nccn1Cc1ccccc1 (centres undefined)	2	-1
COCCn1cc(NS(=O)(=O)c2c(C)c(C)cc(C)c2C)ccc1=O	-2	-3
O=C1NCCN(Cc2ccccc2C(F)(F)F)C1CC(=O)N1CCC(O)CC1 (centres undefined)	3	1
CCNC(=O)N(Cc1cccc(Cl)c1)CC1CC(c2cccc(F)c2)=NO1 (centres undefined)	-13	-13
CC(C)(C)C(=O)NC1(C(F)(F)F)NC(=O)N(c2ccc(F)c(Cl)c2)C1=O (centres undefined)	14	4
Cn1cccc1C(=O)NC(=O)COC(=O)c1ccc(Br)o1	3	3
Nc1nc2ccccc2n2nnnc12	1	1
COC(=O)c1ccccc1C(=O)N1CCCC(CCC(=O)NCc2ccccc2F)C1 (centres undefined)	6	8
CCc1ccccc1-n1ccc2c(cnc3ncnn32)c1=O	5	4
COc1ccc(-c2nc3ccc(C)cn3c2NC(C)=O)cc1OC	-5	-3
Cc1ccccc1CCC1CCCN(C(=O)Cc2c(C)[nH]c(=O)[nH]c2=O)C1 (centres undefined)	3	0
Cc1ccc2nc(SCC(=O)OCc3ccccc3)nc(=O)n2c1	1	0
CCOc1ccc(-c2nc(CN3CCN(C(=O)c4ccccc4OC)CC3)c(C)o2)cc1	0	-15
CC(C(=O)Nc1ccc(F)cc1F)N(C)Cc1nc2ccccc2s1 (centres undefined)	8&6	3&5
O=C(Nc1ccc2c(c1)OCO2)C1CCN(C(=O)C=Cc2cc(Cl)cc(Cl)c2)CC1	-6	-7

Continuation.
SMILES	NPYLR7 agonist	NPYLR7 agonist max-min
COCCNC(=O)C(NC(=O)c1ccc(F)cc1)C1CCN(C(=O)c2ccccc2F)CC1 (centres undefined)	5	2
CC(=O)Oc1cccc(C(=O)N2CCC(c3nc(-c4ccc(Cl)cc4F)no3)CC2)c1C	5	2
O=C(NC1CCN(c2ccccc2C(=O)NCc2cccnc2)CC1)c1ccc(Cl)cc1	19	30
O=C(NCCCN1CCCC1=O)c1ccc(-c2cc(-c3ccccc3)n[nH]2)cc1	0	-5
O=C(CCNC(=O)c1cc(C2CC2)[nH]n1)Nc1nccs1	-4	-11
Cc1c(C(=O)NC2CCc3c(O)cccc32)nnn1-c1ccc2c(c1)OCCO2 (centres undefined)	2	29
Cc1cccc(NC(=O)N(CC2CCOC2)C2CC2)c1 (centres undefined)	4	-2
CCCN1CCN(c2nc3c(c(=O)[nH]c(=O)n3C)n2Cc2ccccc2C)CC1	-9	-11
CCOC(=O)c1c(NC(=O)CC2Nc3cc(C)c(C)cc3NC2=O)sc2c1CCCC2 (centres undefined)	-9	-8
CCC(=O)N(c1nnc(SCC(=O)NC(=O)c2cccn2C)s1)C1CC1	0	3
CC1Oc2ccccc2N(Cc2ccc(Cl)cc2)C1=O (centres undefined)	9	4
O=C(NC1CCN(c2ccccc2C(=O)NCc2ccco2)CC1)c1ccco1	-3	4
CCn1cc(CN2CCC(C(=O)Nc3cccc(-c4nnc(C)s4)c3)CC2)c(C)n1	9	6
CC(C)Cc1nnc(NC(=O)c2cccc(C#N)c2)s1	-4	-8
CCC(=O)NCCc1c[nH]c2ccc(OC)cc12	-6	-9
CC(C)(C)n1ncc2c(=O)n(NC(=O)c3ccc(-c4ccccc4)cc3)cnc21	0	-2
N#CC(=C1NS(=O)(=O)c2ccccc21)c1nc(C23CC4CC(CC(C4)C2)C3)cs1	-5&-5	-12&-9
COc1cn(CC(=O)Nc2ccccc2)c(CSc2nccc(C)n2)cc1=O	-4	-7
COc1ccc(CCOC(=O)[C@@H]2CCCN2C(=O)CC2Cc3ccccc3C2)cc1OC	-2	-12
COC(=O)C1=C(C)N=c2s/c(=C\c3ccc(Cl)c(Cl)c3)c(=O)n2C1c1ccc(OC)cc1 (centres undefined)	2	-2
COc1cc(Cl)c(C)cc1NS(=O)(=O)c1cncc(F)c1	-1	-1
CC(CNc1ccc(C#N)cc1F)N1CCN(C)CC1 (centres undefined)	-2	-3
CCn1cc(C(CC(=O)N2CCC(Cc3ccccc3)CC2)c2cccc(Cl)c2)c2ccccc21 (centres undefined)	7	17
CNCc1cc(-c2ccc(F)cc2OC)ccc1OC	1	0
Cc1cc(-c2ccc(C(C)N3CCCCC3)cc2)cnc1N (centres undefined)	18	6
CCONC(=O)c1ccc(C(=O)NOCC)s1	-4	37
Cc1cc2n(n1)CCN(c1cc(N3CCOCC3)nc(N)n1)C2	-4	-6
Cc1ccc2c(c1)c(C(=O)NCc1cccnc1N1CCN(C)CC1)nn2C	-3	-4
CCC1C(=O)N(C)CCN1C(=O)c1ccc(CSc2ccccn2)cc1 (centres undefined)	3	1
Cc1cc(=O)[nH]c(NCCNCc2cnc(-c3ccccc3C)s2)n1	-4	-5

Sorted by molar mass (lowest first): 7 of the compounds above.
SMILES	NPYLR7 agonist	NPYLR7 agonist max-min
CCONC(=O)c1ccc(C(=O)NOCC)s1	-4	37
CC(CNc1ccc(C#N)cc1F)N1CCN(C)CC1 (centres undefined)	-2	-3
Cc1cc(-c2ccc(C(C)N3CCCCC3)cc2)cnc1N (centres undefined)	18	6
CC(C)(C)n1ncc2c(=O)n(NC(=O)c3ccc(-c4ccccc4)cc3)cnc21	0	-2
COc1cn(CC(=O)Nc2ccccc2)c(CSc2nccc(C)n2)cc1=O	-4	-7
COc1ccc(CCOC(=O)[C@@H]2CCCN2C(=O)CC2Cc3ccccc3C2)cc1OC	-2	-12
CCn1cc(C(CC(=O)N2CCC(Cc3ccccc3)CC2)c2cccc(Cl)c2)c2ccccc21 (centres undefined)	7	17

Taken from the listing (2 entries):
SMILES	NPYLR7 agonist	NPYLR7 agonist max-min
Cc1cc(-c2ccc(C(C)N3CCCCC3)cc2)cnc1N (centres undefined)	18	6
CCONC(=O)c1ccc(C(=O)NOCC)s1	-4	37

Following part
SMILES	NPYLR7 agonist	NPYLR7 agonist max-min
COc1ccccc1N1CCN(c2ccc(NC(=O)Nc3ccc(C)cc3C)cc2C(=O)NCCc2ccccc2)CC1	-3	6
OCCNc1nc(NCCc2cccs2)nc2c1cnn2-c1ccc(F)cc1	-1	-3
COc1cccc2c1N(C(=O)C1COc3ccccc3O1)CCC2 (centres undefined)	1	0
COc1ccc(-c2coc3c(C(=O)NCC4CCOCC4)cccc23)c(C)c1	-16	-15
COc1cc2c(cc1OC)C(c1cccc(Cl)c1)N(C(=O)c1c(F)cccc1F)CC2 (centres undefined)	-9	-9
CCCC(C)C(=O)N1CCc2cc(OC)c(OC)cc2C1c1ccc(F)cc1 (centres undefined)	14	7
Cc1cc(Cn2nnc3ccccc32)no1	2	9
NC(=O)c1ccsc1NC(=O)CCC(=O)NNC(=O)c1ccncc1	1	3
COc1ccc2c(c1OC)C(=O)OC2NC(N)=O (centres undefined)	11	13
CC(Cc1cccc(Cl)c1)NC(=O)c1cccc(C#N)c1 (centres undefined)	-1	-4
Cc1ccc(CN2CCCn3cccc3C2c2cc(F)ccc2F)c(C)c1 (centres undefined)	13	14
CCc1nn(C(CC)C(=O)NC2CCC(C)CC2)c(=O)c2cc3oc(C)cc3n12 (centres undefined)	2	0
O=c1oc2ccc3ccccc3c2cc1-c1csc(Nc2cccc(C(F)(F)F)c2)n1	3	-3
COc1cccc(CC2CN(CC(=O)NCc3cccs3)CCO2)c1 (centres undefined)	4	0
CCC(=O)Oc1cc(C)[nH]c(=O)c1[N+](=O)[O-]	1	-1

Given bar-delimited: part of the list above
Compound | NPYLR7 agonist | NPYLR7 agonist max-min
Cc1cc(Cn2nnc3ccccc32)no1 | 2 | 9
NC(=O)c1ccsc1NC(=O)CCC(=O)NNC(=O)c1ccncc1 | 1 | 3
COc1ccc2c(c1OC)C(=O)OC2NC(N)=O (centres undefined) | 11 | 13

(listing goes on)
SMILES	NPYLR7 agonist	NPYLR7 agonist max-min
CCSc1nc2c(c(=O)[nH]1)C(c1cccs1)C1C(=O)CC(C)(C)CC1=N2 (centres undefined)	-1	-1
Cc1nc2c(=O)n(CC(=O)N3CCc4ccccc43)nc(-c3ccc(F)cc3)c2s1	2	-3
CC(C)CN(CC(=O)N(Cc1ccc2c(c1)OCO2)Cc1cccs1)C(=O)Nc1ccc(C#N)cc1	-2	0
CCC(C(=O)N(Cc1ccc(F)cc1)Cc1cc(NC(=O)NC(C)C)ccc1N(C)C)c1ccccc1 (centres undefined)	32	24
Cn1c(=O)c2c(nc3n2CC(c2ccc(F)cc2)=NN3Cc2ccc(Br)cc2)n(C)c1=O	0	4
CN(Cc1cn[nH]c1-c1cccc(F)c1)CC1(CO)CC1	5	4
COCC(=O)N[C@H]1C[C@@H](C(=O)OC)N(C(C)=O)C1	-12	-16
Cc1ccc(COC(=O)c2cc(C)nc3n[nH]c(C)c23)cc1	-2	-4
OCc1cccc(-c2nccc3[nH]nc(-c4ccccc4)c23)c1	17	12
CCOc1ccc(NC(=S)NC(C)(C)C)cc1	2	3
CSc1ncccc1C(=O)Nc1ccnn1Cc1ccccn1	6	2
CN(C)c1ccc(-n2cccc2C=O)cc1	5	6
CCCC1C2CC(C)CC=C2C(C#N)C(=N)C1(C#N)C#N (centres undefined)	8	8
CC(C)(CO)NC/C=C/c1ccccc1	-1	-2
COC[C@H]1C[C@H]2C[C@H](O)[C@@H](NC(=O)COc3ccccc3)[C@@]2(O)CO1	1	-3

Some of the compounds tested; count on the stated rates, not on these rows.
